Bioassay records: PubChem, several laboratories
ugtP null kill = growth inhibition of ugtP-null S. aureus, primary screen, RN4220 ugtP deletion, OD600. 16 h; some inactives read as strong as hits. growth inhibition, % (no concentration beside the values). actives 0.54% (n = 330,000). AID 1259309, 2017;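 active means z-score under -3 and OD600 up to 0.15 on both plates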;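 further: plate controls were untreated wells for no effect and antibiotic for full effect; wells of about 80 µL received 100 nL stock; the first replicate is given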
Mtb hypoxia rep = PubChem AID 1159583; M. tuberculosis hypoxia-regulated fluorescent reporter, fluorescence; fluorescence inhibition, % (concentration not given with the values); actives 0.1% (n = 300,000);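 active means 35 to 45% if threefold the growth effect, above 45% if 1.5-fold the growth effect; inactive means the rest, general growth blockers included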;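 further: wells of about 50 µL received 100 nL stock; 0% = vehicle wells and 100% = reference inhibitor wells; whole bacteria with a GFP reporter of the hypoxia response; strong numbers were not always called active; many hits fall short of the cut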
PrP UTR inh = inhibition of PrP 5' UTR reporter expression. cell-based PrP 5' UTR mRNA reporter, plate reader. AID 488862, 2010. actives 0.35% (n = 340,000). inhibition, % (concentration not given with the values);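 active means every replicate at 50% or more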;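 further: 0 = median of the neutral control wells; tested in H4 reporter cells; numbers are from one replicate; inactives centre near -14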
BJeLR viability = MLPCN primary cell-based screen for lethality selective to Ras in HRASV12 cells | BJeLR (HRASV12) viability, CellTiter-Glo ATP luminescence, 48 h; reference of the scale not given here | inhibition, % (no concentration beside the values) | actives 0.17% (n = 300,000);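 active means replicate mean above 50%; inconclusive means above 50% but judged a plate artefact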;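 further: 50 nL library stock added to about 25 µL; numbers are from one replicate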
RN4220 kill = growth inhibition of S. aureus RN4220, primary screen, OD600 | 16 h | inhibition, % (test concentration not listed) | actives 0.33% (n = 330,000) | AID 1259311, 2017;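 active means z-score of -3 or lower and OD600 up to 0.18 on both plates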;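 further: plate controls were untreated cells for no effect and reference antibiotic for full effect; stock transfer was 100 nL into about 80 µL; one replicate is shown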
Bead autofluor = counter-screen for toxin protease inhibitors: compound fluorescence. actives 3.1% (n = 360,000). AID 624483. compound autofluorescence counterscreen, microsphere flow cytometry; active compounds read high. fluorescence intensity (concentration not given with the values);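 active means at least 3 SD above the mean of all compounds, about 16000 in these data; inconclusive means too few beads counted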;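 further: 100 nL of 1 mM stock went into each well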
Mtb hypoxia rep growth = second read-out of Mtb hypoxia rep, no call of its own (marks repeat the call); growth inhibition, %; measured here: M. tuberculosis growth (absorbance);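 0% = vehicle and 100% = reference antibiotic; read after six days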
An asterisk follows results filed as active; ? = inconclusive; . = not tested or not shown. This is a random part of the collection (roughly 4% active in at least one column).

SMILES	ugtP null kill	Mtb hypoxia rep	Mtb hypoxia rep growth	PrP UTR inh	BJeLR viability	RN4220 kill	Bead autofluor
N#Cc1cc2c(nc1SCc1ccc(Cl)nc1)CCCCC2	15	4	13	-11	-6	-0.4	4536
CCOC(=O)c1nc(Nc2ccc(OC)cc2)c2ccccc2n1	4	-4	8	4	7	0.8	3771
O=S(=O)(NC1CCCCC1NS(=O)(=O)c1ccc(F)cc1)c1ccc(F)cc1 (stereo unspecified)	5	-1	-8	-4	-2	6.7	7321
CCOc1cc(CNn2cnnc2)cc(Br)c1OCC(=O)NC1CCCCC1	9	-8	-4	-10	7	4.0	?
Cc1c(NC(=O)C(C)OC(=O)c2c3c(nc4ccccc24)CCC3)c(=O)n(-c2ccccc2)n1C (stereo unspecified)	0	3	8	-14	3	4.3	2147
CC(=O)c1cccc(CN2CCCC(C(=O)Nc3ccc(-c4ccco4)cc3)C2)c1 (stereo unspecified)	6	-14	-6	10	1	7.7	7502
CCn1c2ccccc2c2cc(N=C3SC(CC(=O)Nc4ccccc4OC)C(=O)N3C)ccc21 (stereo unspecified)	-13	-1	-3	2	5	-6.0	3551
O=C(c1ccc(COc2c(F)c(F)c(F)c(F)c2F)o1)N1CCOCC1	-7	24	10	-3	-15	-5.7	2497
NS(=O)(=O)c1ccc(NC(=O)COC(=O)c2ccc3c(c2)OCCO3)cc1	2	6	5	-11	-3	8.5	4117
O=C(Nc1ccccc1)Nc1nnc(-c2ccccc2)s1	3	-1	-4	-50	-3	0.2	3841
CC(C)(C)c1ccc(C(=O)NN=C2C3CN4CCN(C3)CC2(c2ccccc2)C4)cc1	10	6	7	.	.	5.2	.
CC12COC3(C(=O)Nc4ccccc4)CC1CCC32C (stereo unspecified)	-2	-7	5	-1	3	-0.1	4193
COc1cccc(NC(=O)CN(C)C(=O)c2cccnc2Sc2ccc(C)c(C)c2)c1	-5	7	-3	-17	-11	2.0	?
CC1CCCN(C(=O)CN2C3CCC2CC(O)(c2ccc(F)cc2)C3)C1 (stereo unspecified)	9	2	-6	-26	-3	4.5	2588
COc1ccccc1C(=O)Nc1c2c(nn1-c1ccc([N+](=O)[O-])cc1)CS(=O)(=O)C2	2	6	3	-4	-12	0.9	5953
CCCCNC(=O)N(O)C1N(/N=C/c2cccs2)C(=S)SC1(C)C (stereo unspecified)	.	.	.	-30	-9	.	5818
C[C@H](CO)N1C[C@H](C)[C@@H](CN(C)C(=O)NC2CCCCC2)Oc2ccc(NC(=O)Cc3ccccc3)cc2C1=O	15	4	8	-17	.	2.3	3523
Cc1cc(N2CCOCC2)ccc1C=C1NC(=O)N(CC(=O)Nc2ccc(F)cc2)C1=O	-3	-4	-4	.	.	10	.
O=C1c2ccccc2S(=O)(=O)N1CC(O)Cn1c2ccccc2c2ccccc21 (stereo unspecified)	-25	1	10	-27	0	-4.0	3453
Cc1nc2c(ccc3c([N+](=O)[O-])cccc32)c(C)c1C	8	3	4	71*	-1	5.1	4533

The final 3 records of the section above open the next one:
SMILES	ugtP null kill	Mtb hypoxia rep	Mtb hypoxia rep growth	PrP UTR inh	BJeLR viability	RN4220 kill	Bead autofluor
Cc1cc(N2CCOCC2)ccc1C=C1NC(=O)N(CC(=O)Nc2ccc(F)cc2)C1=O	-3	-4	-4	.	.	10	.
O=C1c2ccccc2S(=O)(=O)N1CC(O)Cn1c2ccccc2c2ccccc21 (stereo unspecified)	-25	1	10	-27	0	-4.0	3453
Cc1nc2c(ccc3c([N+](=O)[O-])cccc32)c(C)c1C	8	3	4	71*	-1	5.1	4533
CCOC(=O)c1cc2cc3ccccc3cc2oc1=O	5	-2	4	-27	-12	5.0	3674
Cc1ccc(C)c(S(=O)(=O)Nc2nc(C)c(C(=O)Nc3ccccc3)s2)c1	0	4	3	-3	1	0.1	2002
O=C(Nc1cccc(O)c1)N1CCOCC1	-3	5	4	-7	3	-9.3	2893
C=CCNC(=O)C1=NOC(CNC(=O)c2c(-c3ccccc3Cl)noc2C)C1 (stereo unspecified)	-1	.	.	-32	-1	2.2	2542
N#Cc1cc(-c2ccccc2)cnc1Cl	4	3	5	-9	-2	2.2	?
FC(F)(F)c1ccc2c(c1)nc1n2CCCC1	0	1	15	-8	-3	-6.9	4827
COc1ccccc1CN1C2CCCC1CC(NC(=O)/C=C/c1ccccc1)C2 (stereo unspecified)	.	.	.	-44	3	.	5766
Nc1ncc(-c2nnnn2-c2ccc(Cl)cc2)c(-c2ccc(Cl)cc2)n1	5	5	14	-12	19	8.2	3151
CC(=O)Nc1ccc(OCC(O)Cn2cccn2)cc1 (stereo unspecified)	-4	-2	4	-20	6	-1.6	4107
CCOc1ccc(C(=O)NCC(c2ccco2)N2CCc3ccccc3C2)cc1 (stereo unspecified)	7	0	0	-36	11	2.4	6111
CCOc1ccc(Oc2nc(NCC(C)C)nc(N(C)C)n2)nn1	-3	.	.	-21	-19	2.0	4634
Cc1cc(C(=O)N2CCc3ccccc32)n(-c2ccccc2)n1	-5	2	5	-5	12	0.2	4350
Clc1ccc2oc(-c3ccccc3)nc2c1	4	9	7	-130	-4	15	3935
C[C@H](NC(=O)[C@@H]1Cc2ccccc2CN1)C(=O)NC1CCCCC1	-5	1	9	2	9	1.0	5758
CN1CCCN(C(=O)c2cccc(Cl)c2)CC1	6	4	7	-36	-1	3.0	4006
Cc1cc(C(=O)NN=Cc2cc(Br)c(Br)o2)n[nH]1	1	-8	13	.	.	-0.4	.
CCC(=O)OCc1cc2cccc(C)c2[nH]c1=O	2	8	7	-15	-10	2.2	9044
COc1ccc(OCCC(=O)OCc2c(C)noc2C)cc1	13	18	8	-41	2	-1.6	3556
CCOc1ccc(NC(=O)CN(C)C(=O)c2ccc(NC3CC3)c([N+](=O)[O-])c2)cc1OCC	3	8	-1	-4	-3	4.4	5508
OC(COCC1COc2ccccc2O1)CN1CCN(c2ccccc2)CC1 (stereo unspecified)	0	.	.	-17	-1	-0.2	4768

Entries of single compounds, looked up by structure.
`C[C@H](CO)N1C[C@H](C)[C@@H](CN(C)C(=O)NC2CCCCC2)Oc2ccc(NC(=O)Cc3ccccc3)cc2C1=O` reads ugtP null kill: 15; Mtb hypoxia rep: 4; Mtb hypoxia rep growth: 8; PrP UTR inh: -17; BJeLR viability: .; RN4220 kill: 2.3; Bead autofluor: 3523
`CCCCNC(=O)N(O)C1N(/N=C/c2cccs2)C(=S)SC1(C)C` (stereo unspecified) reads ugtP null kill: .; Mtb hypoxia rep: .; Mtb hypoxia rep growth: .; PrP UTR inh: -30; BJeLR viability: -9; RN4220 kill: .; Bead autofluor: 5818

Additional results.
SMILES	ugtP null kill	Mtb hypoxia rep	Mtb hypoxia rep growth	PrP UTR inh	BJeLR viability	RN4220 kill	Bead autofluor
CC(Cn1nnc2ccccc21)=NNC(=O)c1ccc(Br)cc1	5	1	-4	.	.	0.2	.
CCOc1ccc(-c2cc(C)[n+](CCc3ccc(OC)c(OC)c3)c(-c3ccc(OCC)cc3)c2)cc1	100*	.	.	.	6	100*	3009
N#C/C(=C\c1ccc(Cl)cc1)C(=O)NC1CC1	4	0	-4	-26	-12	1.1	3811
CC(=O)Nc1ccc(S(=O)(=O)NC2(C(F)(F)F)NC(=O)N(C3CCCC3)C2=O)cc1 (stereo unspecified)	-4	5	18	10	4	-3.6	22547*
CCCc1cc(=O)[nH]c(SCC(=O)N(CCOC)c2c(N)n(Cc3ccccc3)c(=O)[nH]c2=O)n1	4	-1	0	-11	1	4.7	5484
CCOC(=O)c1sc(-c2cccc(C(F)(F)F)c2)nc1O	0	-1	7	-17	8	44	4233
COCC(C)NC(=O)c1nn(Cc2ccccc2)c(=O)c2ccccc12 (stereo unspecified)	7	4	9	-2	3	3.3	4307
O=C(NCc1ccc(F)cc1)C1CCC(CNc2c(N3CCOCC3)c(=O)c2=O)CC1 (stereo unspecified)	-5	4	0	-21	10	2.2	4837
Cc1ccc(OCC(=O)Nc2ccc(S(=O)(=O)N3CCCC3)cc2)cc1	2	11	13	-21	-2	-0.6	3940
O=C(NCc1cccs1)C1CCCN(S(=O)(=O)c2cccs2)C1 (stereo unspecified)	4	.	.	6	6	0.2	4955
CCOc1ccc(NCC(=O)c2ccc(C)cc2)cc1	-2	7	5	-16	-4	0.7	3231
CCOc1ccc(OCCCC(=O)O)cc1	7	6	3	-26	-3	-1.5	20482*
O=C(Nc1ccc2oc(-c3ccccc3F)nc2c1)c1ccc([N+](=O)[O-])o1	13	.	.	-28	9	3.7	2823
Cc1ccc(NC(=O)c2cccc(N3C(=O)C4C5CCC(C5)C4C3=O)c2)c(C)c1 (stereo unspecified)	-2	-9	-9	-14	10	0.8	2470
c1ccc(SCCN2CCc3ccccc3C2)cc1	10	3	-6	-21	6	7.9	2140
O=C(CSc1ncnc2c1oc1ccccc12)N1CCCc2ccccc21	14	11	11	-18	-6	23	10657
O=CN1N=C(c2ccccc2)CC1c1ccc(Cl)cc1 (stereo unspecified)	.	.	.	-20	-9	.	3766
O=C(NN=Cc1ccc(Cl)cc1)C1CC12CCC2 (stereo unspecified)	-1	7	5	.	.	2.2	.
COc1ccc(OC)c(NC(=S)N2CCN(C/C=C/c3ccccc3)CC2)c1	-1	-7	9	1	-3	2.9	4115
CCCN(C(=O)CSCc1ccc(Cl)cc1)c1c(N)n(Cc2ccccc2)c(=O)[nH]c1=O	.	.	.	0	-5	.	?
C#CCOc1c(Br)cc(/C=N\NC(=O)CN2CCOCC2)cc1OCC	.	.	.	-17	-12	.	2909
CC1(C)CC(=O)C(C(=S)Nc2ccccc2)=C(NCCN2CCOCC2)C1	4	7	-7	-10	-1	2.5	9313
Oc1c(C(c2ccco2)N2CCN(C(c3ccccc3)c3ccccc3)CC2)sc2ncnn12 (stereo unspecified)	10	-3	2	-11	-6	-0.1	5400
COc1ccc(NC(=O)Nc2ccccc2SC)cc1OC	1	14	8	-35	3	4.1	4148
COc1cc(/C=C2\SC(N)=NC2=O)ccc1OCC(=O)Nc1ccccc1C	-5	57*	31*	-21	.	-0.6	9012
O=C(O)c1cccc(N2C(=O)CSC2=S)c1	0	3	1	.	8	4.2	3785
O=C(NN=Cc1ccc(F)cc1)c1ccc(Br)cc1	1	3	5	.	.	1.3	.
CCOc1cc(CNC(C)C(O)c2ccccc2)cc(Cl)c1OCC (stereo unspecified)	0	10	7	-11	-2	0.2	2053
COC(=O)c1[nH]c2c(c1C)C(=O)CC(c1ccccc1)C2 (stereo unspecified)	-4	5	-9	-21	26	0.2	12963
COc1ccc(-n2c(SCC(=O)NCC3CCCO3)nc3c(c2=O)SC(C)C3)cc1 (stereo unspecified)	-5	-4	2	4	0	-2.8	4374
O=C(NCCOc1cccc(Cl)c1Cl)c1cc(-n2cnnc2)ccc1Cl	2	3	3	-9	-5	-2.2	11843
CC(=O)C[C@@H](O)CC(=O)[C@H]1OC(=O)CCCCCc2ccccc21	3	-10	-3	1	.	5.0	3446
CCOC(=O)CNC(=O)CSc1nccn1Cc1ccco1	2	12	10	-18	14	-0.5	4722
CC(C)C(NC(=O)CCNC(=O)c1ccc([N+](=O)[O-])cc1)c1nc2ccccc2[nH]1 (stereo unspecified)	4	9	5	-27	.	2.1	4046
NC(=O)c1ccc(NC(=O)COC(=O)CC2Sc3ccccc3NC2=O)cc1 (stereo unspecified)	1	7	-1	2	.	1.6	?
COc1ccc(/C=C/C(=O)Nc2ccncc2)cc1OC	9	-6	2	-26	0	3.6	4925
CCOc1ccccc1N(CC)C(=O)c1ccc2c(=O)n3c(nc2c1)CCCCC3	1	9	-14	-14	-5	4.4	4475
O=C(c1ccc(Cl)cc1)N1CCCC(C(=O)N2CCN(c3ccccc3)CC2)C1 (stereo unspecified)	2	-3	-24	.	0	0.8	5681
O=C(CN1CCCCC1)Nc1ccc(Br)cc1[N+](=O)[O-]	5	-7	10	-23	9	9.1	4631
O=C(NCCN1CCOCC1)c1cc2sccc2n1Cc1ccc(F)cc1	-2	5	-1	7	0	5.1	15116
COc1ccc(C(c2c(O)ccc3ccccc23)N2CCOCC2)c(OC)c1 (stereo unspecified)	.	.	.	-54	-2	.	8979
N#Cc1ccccc1OCC(=O)Nc1ccc2c(c1)OCCO2	0	-5	6	-50	.	0.7	3812
